STK33 kinase inh = inhibitors of purified STK33 kinase, primary screen, biochemical, ADP-Glo luminescence, homogeneous, cell-free; Serine/threonine-protein kinase 33 (Homo sapiens), Q9BYT3; MBP phosphorylation; inhibition, % at 10 µM; actives 0.073% (n = 320,000); AID 2661, 2010;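 active = inhibition at or above 25%, using the most active replicate where run in duplicate; inactive = inhibition below 25%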
Target sequence (Q9BYT3 whole entry, looked up): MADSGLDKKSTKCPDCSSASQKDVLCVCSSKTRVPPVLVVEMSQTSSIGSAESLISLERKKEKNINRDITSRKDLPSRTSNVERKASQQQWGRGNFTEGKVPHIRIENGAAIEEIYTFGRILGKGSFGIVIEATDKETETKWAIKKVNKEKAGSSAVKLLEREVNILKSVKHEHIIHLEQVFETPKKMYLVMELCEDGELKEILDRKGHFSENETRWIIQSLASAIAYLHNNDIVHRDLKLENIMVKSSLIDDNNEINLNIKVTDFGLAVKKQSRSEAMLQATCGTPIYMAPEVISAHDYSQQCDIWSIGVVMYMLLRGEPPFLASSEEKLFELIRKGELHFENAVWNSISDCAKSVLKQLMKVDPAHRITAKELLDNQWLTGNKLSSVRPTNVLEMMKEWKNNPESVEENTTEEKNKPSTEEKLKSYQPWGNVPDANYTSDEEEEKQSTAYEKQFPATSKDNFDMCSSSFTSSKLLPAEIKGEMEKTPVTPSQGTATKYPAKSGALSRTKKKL
The depositor's hits bear a star. A portion of the library; most or all hits stand in other tables.

STK33 kinase inh	canonical_smiles
-1.0	Cc1ccccc1N1C(=O)c2ccccc2C1Nc1cccnc1 (configuration not stated)
-0.1	COc1ccc(C(=O)NCC(=O)N/N=C/c2cccc(OC(=O)c3ccco3)c2)cc1OC
-2.0	CCCn1nnc(NC(=O)c2ccc(OC)cc2)n1
-0.5	CCCCCCC(=O)NC(Nc1ccc(S(N)(=O)=O)cc1)C(Cl)(Cl)Cl (configuration not stated)
-0.3	COc1cc(S(=O)(=O)Nc2c(C)nn(C)c2C)ccc1NC(C)=O
-0.1	Cc1ncc(CO)c2cc(C(=O)Nc3cccc(F)c3)c(=Nc3cccc(C(N)=O)c3)oc12
-0.7	CCOc1ccccc1NC(=O)CC1NCCNC1=O (configuration not stated)
1.0	CSc1ccccc1OCc1cc(C(=O)N(C)Cc2ccc(C)o2)no1
0.6	Nc1nc(Cl)nc2ncn(Cc3ccccc3)c12
-1.4	COc1ccc(N2CCC(CNC(=O)Nc3ccc(OC)cc3OC)C2)cc1 (configuration not stated)

3 records drawn at random from those above, as already listed:
STK33 kinase inh	canonical_smiles
-0.1	Cc1ncc(CO)c2cc(C(=O)Nc3cccc(F)c3)c(=Nc3cccc(C(N)=O)c3)oc12
-1.0	Cc1ccccc1N1C(=O)c2ccccc2C1Nc1cccnc1 (configuration not stated)
0.6	Nc1nc(Cl)nc2ncn(Cc3ccccc3)c12

Other structures follow.
STK33 kinase inh	canonical_smiles
-0.9	CCCCCCCCSc1nnc(/N=C/N(C)C)s1
-0.6	N/C(CCS(=O)(=O)c1ccc(Cl)cc1)=N\OC(=O)c1ccc(Cl)cc1
-0.1	CC(C)c1cc(C(=O)Nc2cccc(Cl)c2)no1
-0.9	Cc1ccc(CN2C(=O)C(Cc3ccccc3)Nc3ncnc(N4CCN(c5ccccc5)CC4)c32)cc1 (configuration not stated)
-0.3	Cc1nn(CC(=O)NCc2ccc(C(=O)O)cc2)c(C)c1[N+](=O)[O-]
1.0	CCN(CCNS(=O)(=O)c1ccc2[nH]c(=O)sc2c1)c1ccccc1
-0.5	CCN(/C=N/c1sc2c(c1C#N)CC(C)(C)NC2(C)C)CC
-0.9	CCN(CC)CCNC(=O)NC(=O)c1ccc(Cl)cc1
-0.5	CCN(C(=O)COC(=O)c1[nH]c(C)c(C(C)=O)c1C)C1CCS(=O)(=O)C1 (configuration not stated)
-0.8	COc1ccc(N(C)S(=O)(=O)c2cccc(C(=O)NC3CCCCC3C)c2)cc1 (configuration not stated)
-5.8	O=C(O)C1SCCN1S(=O)(=O)c1ccc(N=NN2CCOCC2)cc1 (configuration not stated)
-1.6	Cc1ccc(N(CC(=O)NC2CCCCC2)C(=O)CCC(=O)Nc2nccs2)cc1
-0.4	O=C(Cc1cccc(C(F)(F)F)c1)NCc1cccc(Cl)c1
-0.7	Cc1cccc(NC(=O)C2CCN(S(=O)(=O)c3cccs3)CC2)n1
-0.5	NC(=S)Nc1cnc2ccccc2c1
-0.1	CC1(C)C(c2cccs2)=[N+]([O-])C2(CCCCC/C2=N\NC(N)=O)N1O (configuration not stated)
-0.5	Cc1cnc(C(=O)OCC(=O)NCCc2ccccc2)cn1
-0.5	CC(=O)N/C(=C/c1ccc(OC(F)F)cc1)C(=O)O
-0.2	O=C(Nc1cccc2c1C(=O)NC2=O)c1ccccc1[N+](=O)[O-]
-0.1	COc1cc2cc(CN(CCO)S(=O)(=O)c3ccccc3)c(=O)[nH]c2cc1OC
-0.3	CN(C(=O)CN(C)S(=O)(=O)c1ccc(F)cc1)c1c(N)n(Cc2ccccc2)c(=O)[nH]c1=O
-0.7	COc1cccc(CN2CC(O)=C(c3nc(-c4ccc(Cl)cc4)cs3)C2=N)c1
-0.6	CCCCCCN1C2=NCCCN2c2ccccc21
-0.3	O=C(O)CNC(=O)c1ccc(N2CCOCC2)cc1[N+](=O)[O-]
-0.7	CCOC(=O)c1sc2nc(SCC(=O)N(CC)CC)n(CCCN3CCCC3=O)c(=O)c2c1C
-0.3	CC(C)N1CCc2c(sc(N)c2C#N)C1
-1.4	CCOc1ccc(C(C)=O)cc1N1C(=O)C2C(C1=O)C1C=CC2C12CC2 (configuration not stated)
-0.1	CN(CC(=O)NCCN1CCN(Cc2ccccc2)CC1)S(=O)(=O)c1cccc2nsnc12
-0.8	COCCn1c(SCC(=O)NC(=O)NC(C)C)nc2ccccc21
-0.2	C=CCOC(=O)C1=C[C@H](C(C)(C)C)[C@@H](CCCO)[C@H](OCC)O1
1.6	CCN1C(=O)[C@@H]2[C@@H](c3ccc(-c4ccc(C(C)=O)cc4)c(OC)c3)N3CCCC[C@@]3(C(=O)OC)[C@@H]2C1=O
-0.7	Cc1ccc(-n2nc3c(=O)n(CCCC(=O)NCc4cccc(F)c4)nc(C)c3c2C)cc1
1.3	CCOC(=O)c1c(C)sc2c1N(C(=O)CCl)c1cc(Cl)ccc1S2
-0.8	O=C(Nc1ccccc1)[C@@H]1CC=C[C@@H]2CCN(C3CCCCC3)C(=O)[C@@H]21
-0.6	CC(C)OC(=O)C(C#N)c1nc2ccccc2nc1N1CCCC1 (configuration not stated)
0.8	Cc1cccc(N2CC(C(=O)Nc3nnc(SCCC4OCCO4)s3)CC2=O)c1 (configuration not stated)
6.2	CCN1/C(=C\C(C)=O)Sc2ccc(OC)cc21
-1.4	Cc1ccc(-n2c(C)cc(C(=O)COc3c(CO)cc(F)cc3CO)c2C)cc1C
-1.2	CCCc1nnc(SCC(=O)N2CCOCC2)n1CCCOC
0.9	O=[N+]([O-])c1ccc(Oc2ccc(/C=N/O)cc2)nc1
2.3	COc1ccc(C/C(N)=N/OC(=O)c2ccc(Cl)cc2)cc1
-0.2	N/C(=N\OC(=O)Cc1ccccc1[N+](=O)[O-])c1cccc(Br)c1
-0.1	CC(=O)N1CCc2cc(Br)cc(S(=O)(=O)NCCCN3CCCC(C)C3)c21 (configuration not stated)
-0.4	Cc1cc(C)n(-c2ccc([N+](=O)[O-])cc2-c2nn[nH]n2)n1
5.8	Clc1ccc(/C=N/Nc2nc(Cl)nc3ccccc23)cc1
-0.9	CC(C)(CNc1ccc([N+](=O)[O-])cc1Cl)CNS(C)(=O)=O
0.1	CCC1=Nc2cc(C(=O)NCCN3CCOCC3)ccc2Sc2ccc(C)cc21
-0.8	C=CCNC(=S)NNC(=O)c1cc(O)ccc1O
3.3	N#CC1=C(Nc2ccccc2Cl)SC(c2ccccc2O)NC1=O (configuration not stated)
-0.2	Cc1ccc(OCC(=O)Oc2c(C)cccc2C)cc1C

Further structures.
STK33 kinase inh	canonical_smiles
3.5	Cc1c(C(=O)Nc2nc3ccccc3[nH]2)cccc1[N+](=O)[O-]
0.9	C(=C\c1nnc2c3ccccc3ncn12)/c1ccccc1
-2.0	O=C(O)c1ccc(Cl)c(NC(=O)C2CCCN2S(=O)(=O)c2cccc3nsnc23)c1 (configuration not stated)
-1.0	Cc1cc(OCCCn2ccnc2)cc(C)c1Cl
-1.3	Cc1onc(-c2ccccc2)c1C(=O)OCCOc1cccc(Cl)c1
-1.4	O=C(Cc1cccc2ccccc12)N/N=C/c1ccc(Sc2nc3ccccc3s2)o1
-1.5	COCCN1C(=O)C(CC(=O)Nc2ccc(C(C)=O)cc2)SC1=Nc1ccccc1 (configuration not stated)
-0.3	Clc1ccc(Cn2cnc3ccccc32)cc1
0.0	O=C(Nc1ncc(Cc2ccccc2)s1)C1COc2ccccc2O1 (configuration not stated)
0.3	COc1ccccc1NC(=O)C(C)N1CCN(C/C=C/c2ccccc2)CC1 (configuration not stated)
0.4	CC(C)CCn1c(S(=O)(=O)O)nc2ccccc21
1.1	CC1(C)CC2CC(C)(CN2/C=C2/CCCCC2=O)C1 (configuration not stated)
0.3	Cc1cc(Nc2ccc(C(C)C)cc2)n2ncnc2n1
0.1	Cn1c(N)c(C(=O)COC(=O)CCC2CCCC2)c(=O)n(C)c1=O
-2.3	CCOC(=O)CC(=O)CSc1nc2ccccc2c(=O)n1-c1ccc(C(=O)NCCOC)cc1
-0.3	C#Cc1ccc([C@@H]2C=C(C(=O)NC3CC3)O[C@H](OCC)[C@H]2CCCO)cc1
-3.5	O=C(CCC(=O)c1ccccc1)NC1CCCN(Cc2ccccc2F)C1 (configuration not stated)
-1.1	COc1ccc(CCNC(=O)CCN2C(=O)[C@@H]3Cc4ccccc4CN3C2=O)cc1OC
0.8	Cc1ccc(S(=O)(=O)c2nnn3c2nc(N2CCN(c4ccccn4)CC2)c2ccccc23)cc1
0.1	FC(F)(F)c1ccccc1-n1c(-c2cnccn2)n[nH]c1=S
-0.5	CCC(CC)C(=O)Nc1cccc(C(=O)NC(C)(C)C)c1
-0.6	O=C(Nc1nc2ccccc2n1CCN1CCCCC1)c1ccc(Cl)cc1
-2.9	O=C(NCc1ccco1)/C(=C\c1cccc([N+](=O)[O-])c1)NC(=O)c1ccco1
0.3	O=C(CN(C(=O)CNS(=O)(=O)c1ccc(F)cc1)c1ccccc1)NCc1ccco1
-0.8	COc1cccc(NC(=O)Cn2c(=O)n(-c3ccccc3)c(=O)c3sccc32)c1
0.4	Cn1c(=O)c2c(nc(SCC(=O)O)n2Cc2cccc(C(F)(F)F)c2)n(C)c1=O
1.5	Cn1cnnc1SCC(=O)N1CCC(Cc2ccccc2)CC1
1.5	CCOC(=O)c1[nH]c(C)c(C(=O)N2CCN(c3ccc(OC)cc3)CC2)c1C
-0.1	Cc1ccccc1NC(=O)COC(=O)c1cc[n+]([O-])cc1
0.6	COc1ccccc1NC(=O)C(=O)N/N=C/c1cccs1
-0.6	COc1cccc(-c2c(NC(=O)c3ccco3)oc3ccc(Cl)cc3c2=O)c1
-1.8	COc1ccc(NS(=O)(=O)c2ccc(C)c(C(=O)N(C)CC(=O)Nc3cccc(OC)c3)c2)cc1
-0.6	COc1ccc(C(=O)Nc2nc3ccc4nc(C)sc4c3s2)cc1
0.4	O=c1cc(CO)oc(C(Nc2ccccn2)c2ccccc2Cl)c1O (configuration not stated)
-0.1	CC(C)(C)C(=O)Nc1nc(-c2ccccc2)ns1
-1.3	CCC(C)c1ccc(NC(=O)C2CC2)cc1 (configuration not stated)
-1.4	CCOc1cc(C(C#N)N2CCCCC2)ccc1OC (configuration not stated)
0.7	COCC(C)NC(=O)c1ccc(Cl)c(Cl)c1 (configuration not stated)
-1.0	Clc1nc(-c2cccnc2)nc2scc(-c3ccccc3)c12
-1.9	CCOc1ccccc1/C=C/c1cc(C(=O)O)c2ccccc2n1
0.0	COc1ccc(OCC(=O)N/N=C(/C)Cc2ccccc2)cc1
-1.2	O=C(NC1(C(F)(F)F)N=C(c2ccccc2)NC1=O)c1ccc(Cl)cc1Cl (configuration not stated)
-0.7	CC(=O)c1ccc(NC(=O)CSc2ccc(-c3ccc4c(c3)OCO4)nn2)cc1
0.0	COc1ccc(CC(=O)Nc2nc3ccccc3[nH]2)cc1
0.0	O=C1CCC(C(=O)OC(C(=O)c2c[nH]c3ccccc23)c2ccccc2)=NN1 (configuration not stated)
0.3	CC(=O)NC1CC2CCCC(C1)N2C(=O)Nc1ccc(Cl)c(C(F)(F)F)c1 (configuration not stated)
-1.3	CCOc1ccc(C(=O)NC(=S)Nc2ccccc2N2CCCCC2)cc1[N+](=O)[O-]
-0.2	CC1CCN(C(=O)CSc2nncn2C)CC1
-2.2	Cc1cccc(NC(=O)CN2C(=O)N/C(=C/c3ccc(-c4cccc(C(=O)O)c4C)o3)C2=O)c1
-0.1	COC(=O)c1ccccc1SCc1csc(C)n1

The list goes on:
STK33 kinase inh	canonical_smiles
-1.8	NC(=O)Cn1nc([N+](=O)[O-])nc1Oc1ccccc1F
1.7	O=C(O)C1CCCCC1C(=O)Nc1ccc(S(=O)(=O)N2CCCC2)cc1 (configuration not stated)
-0.5	Cn1nc(C(F)(F)F)c(CNC(=O)C(C)(C)CCl)c1N1CCOCC1
-0.9	COc1ccc(N2CCN(C(CNC(=O)C(=O)NCC(OC)OC)c3ccco3)CC2)cc1 (configuration not stated)
-1.3	Cc1cccc(-n2c(C)cc(/C=N/NC(N)=S)c2C)c1
-0.7	COc1ccc(S(=O)(=O)NC(CC(=O)NCC2CCCO2)c2ccco2)cc1 (configuration not stated)
-0.7	CCN(CCO)c1ccc(-n2c(N)c(C(=O)OC)c3nc4ccccc4nc32)cc1
-1.1	Clc1ccc(-n2nnnc2Sc2ncnc3sccc23)cc1
0.4	CCc1ccc(OCC(=O)Nc2cccc3nsnc23)cc1
1.1	COc1ccc(OC)c(/C=N/NC(=O)c2cc3c(OC)cc(OC)cc3[nH]2)c1
0.0	O=C(c1ccco1)N1CCN(S(=O)(=O)Cc2ccc(Cl)cc2)CC1
-3.3	CCOC(=O)c1[nH]c2ccccc2c1NC(=O)CCN1CC(C)OC(C)C1 (configuration not stated)
0.0	COc1ccc(/C=C/C(=O)OCC(=O)NCc2ccco2)cc1OC
-0.6	CCO[C@H]1OC(C(=O)N2CCN(Cc3ccc4c(c3)OCO4)CC2)=C[C@@H](c2ccc3c(c2)OCO3)[C@@H]1CCCO
-4.6	CCN(CC)c1cc(C)c2ccccc2n1
-0.9	Cc1ccc(Oc2nnc(-c3cccs3)c3ccccc23)cc1

In the list so far, 13 contain two or more sulfur atoms.
STK33 kinase inh	canonical_smiles
-0.9	CCCCCCCCSc1nnc(/N=C/N(C)C)s1
1.0	CCN(CCNS(=O)(=O)c1ccc2[nH]c(=O)sc2c1)c1ccccc1
-5.8	O=C(O)C1SCCN1S(=O)(=O)c1ccc(N=NN2CCOCC2)cc1 (configuration not stated)
-0.7	Cc1cccc(NC(=O)C2CCN(S(=O)(=O)c3cccs3)CC2)n1
-0.7	CCOC(=O)c1sc2nc(SCC(=O)N(CC)CC)n(CCCN3CCCC3=O)c(=O)c2c1C
-0.1	CN(CC(=O)NCCN1CCN(Cc2ccccc2)CC1)S(=O)(=O)c1cccc2nsnc12
1.3	CCOC(=O)c1c(C)sc2c1N(C(=O)CCl)c1cc(Cl)ccc1S2
0.8	Cc1cccc(N2CC(C(=O)Nc3nnc(SCCC4OCCO4)s3)CC2=O)c1 (configuration not stated)
-2.0	O=C(O)c1ccc(Cl)c(NC(=O)C2CCCN2S(=O)(=O)c2cccc3nsnc23)c1 (configuration not stated)
-1.4	O=C(Cc1cccc2ccccc12)N/N=C/c1ccc(Sc2nc3ccccc3s2)o1
-0.6	COc1ccc(C(=O)Nc2nc3ccc4nc(C)sc4c3s2)cc1
-0.1	COC(=O)c1ccccc1SCc1csc(C)n1
-1.1	Clc1ccc(-n2nnnc2Sc2ncnc3sccc23)cc1
